CtBP-E1A blk: qHTS Assay for Inhibitors of the CtBP/E1A Interaction. CtBP / adenovirus E1A interaction (AlphaScreen). AlphaScreen GST-E1A/His-CtBP binding, 1536-well; active compounds read low; control for the full effect not named in the record. activity change, % (concentration not given with the values). actives 0.49% (n = 340,000). AID 651724, 2012; in the data active means activity change below about -65%; inconclusive means about -30% to -65%; inactive means above about -30%; further: on the % scale 0 is the no-effect control and ±100 the full control effect
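AlphaScreen with 125 nM GST-E1A and 125 nM His-CtBP (5X stocks) in Tris pH 8.0, 300 mM NaCl, BSA, Tween 20, TCEP. Compounds preincubated 2 h at 37 deg C, then glutathione donor/nickel acceptor beads added for 1 h at 37 deg C in dark.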
TRPML1 inh: qHTS for Inhibitors of the Human Mucolipin Transient Receptor Potential 1 (TRPML1) | TRPML1-inducible cells, Ca2+ dye fluorescence, FDSS; active compounds read low; inhibition of EC80 agonist-evoked calcium signal | activity change, negative = inhibition, % (test concentration not listed) | actives 0.02% (n = 390,000) | AID 624415, 2012; in the data active means activity change below about -50%; inconclusive means about -30% to -50%; inactive means above about -30%;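 further: stimulus is agonist 54-4 at its EC80 concentration; on the % scale 0 is the no-effect control and ±100 the full control effect; compound concentration not given in the record; the text of the record puts the active cut at -80%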
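Calcium fluorescence in TRPML1-DL cells induced overnight with Tet: a 110 s read after compound pin addition, then a 110 s antagonist read after challenge with 54-4 at 4 uM final (EC80).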
TRPV1 potentiator: HTS Assay for Compounds that Act as Potentiators of the Vanilloid Receptor 1. potentiation, % at 8.33 µM. actives 0.02% (n = 320,000). TRPV1-expressing cells, Fluo-8 calcium influx, capsaicin EC20 potentiation; host cell line not named in the record; control for the full effect not named in the record. Transient receptor potential cation channel subfamily V member 1 (Homo sapiens), Q8NER1; active means potentiation above 80%; inconclusive means 30% to 80%; inactive means below 30%; further: 0% is about no effect
Target sequence (Q8NER1 whole entry, looked up): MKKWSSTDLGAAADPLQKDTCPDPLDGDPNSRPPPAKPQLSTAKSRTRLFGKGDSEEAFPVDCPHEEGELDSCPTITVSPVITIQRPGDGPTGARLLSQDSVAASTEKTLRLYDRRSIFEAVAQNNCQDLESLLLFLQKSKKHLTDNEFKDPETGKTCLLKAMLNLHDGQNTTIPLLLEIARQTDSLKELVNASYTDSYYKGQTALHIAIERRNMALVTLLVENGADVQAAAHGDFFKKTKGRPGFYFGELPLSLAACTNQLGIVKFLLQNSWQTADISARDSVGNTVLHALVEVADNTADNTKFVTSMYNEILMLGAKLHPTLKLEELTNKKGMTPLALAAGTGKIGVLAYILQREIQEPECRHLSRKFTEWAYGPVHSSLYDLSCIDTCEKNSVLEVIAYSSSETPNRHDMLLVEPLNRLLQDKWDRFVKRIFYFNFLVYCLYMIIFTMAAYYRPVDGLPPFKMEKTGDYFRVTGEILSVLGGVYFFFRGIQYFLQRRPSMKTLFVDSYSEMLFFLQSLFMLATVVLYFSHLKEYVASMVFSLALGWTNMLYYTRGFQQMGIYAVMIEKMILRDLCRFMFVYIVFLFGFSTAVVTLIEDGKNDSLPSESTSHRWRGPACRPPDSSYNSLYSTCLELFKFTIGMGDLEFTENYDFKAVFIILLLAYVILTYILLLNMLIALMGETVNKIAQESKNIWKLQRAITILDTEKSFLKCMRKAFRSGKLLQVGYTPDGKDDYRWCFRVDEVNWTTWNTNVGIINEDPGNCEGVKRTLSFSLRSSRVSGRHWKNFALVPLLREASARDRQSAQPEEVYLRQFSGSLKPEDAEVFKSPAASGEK
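Fluo-8 calcium influx in TRPV1-expressing cells, kinetic read (ex 480/em 520 nm). Compound added and read 3 min for agonist activity, followed by capsaicin at EC20 final and 2 min further read for enhancement.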
Six1-Eya2 blk: qHTS Assay for Inhibitors of the Six1/Eya2 Interaction; Homeobox protein SIX1 (Homo sapiens) + Protein phosphatase EYA2 (Homo sapiens), …; AlphaScreen GST-Six1/His-Eya2 binding, biochemical; active compounds read low; control for the full effect not named in the record; activity change, % (no concentration beside the values); actives 0.56% (n = 360,000); in the data active = activity change below about -65%; inconclusive = about -30% to -65%; inactive = above about -30%; further: on the % scale 0 is the no-effect control and ±100 the full control effect
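Homogeneous AlphaScreen proximity assay pairing GST-Six1 with His-tagged Eya2 (added as 5X mix: 250 nM and 500 nM) in 50 mM Tris pH 8.0, 300 mM NaCl, 1 mM TCEP. Glutathione donor and nickel acceptor beads; 1 h, 37 °C, dark.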
TRPML1 agonist: qHTS for Agonists of the Human Mucolipin Transient Receptor Potential 1 (TRPML1); TRPML1-expressing cells, Ca2+ dye fluorescence, FDSS; host cell line not named in the record; reference of the full effect not given here; activation, % (concentration not given with the values); actives 0.12% (n = 410,000); in the data active = activation above about 50%; inconclusive = about 30% to 50%; inactive = below about 30%; further: 0% is about no effect; the text of the record puts the active cut at 80%
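TRPML1-DL cells, Tet-induced overnight (~16 h, 37 degrees C), loaded 45-90 min at room temperature with Ca8 no-wash calcium dye plus quencher. FDSS fluorescence: 10 s baseline, compound pin-transfer, 110 s agonist read, then EC80 54-4 (4uM final) and 110 s antagonist read.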
D2 potentiator: Beta-Arrestin HTS for Positive Allosteric Modulators of the Human D2 Dopamine Receptor: Potentiators | D(2) dopamine receptor (Homo sapiens), P14416 | DiscoveRx D2 beta-arrestin cells, luminescence, 90 min; 100% = 57 uM dopamine signal | potentiation, % (test concentration not listed) | actives 0.23% (n = 360,000) | AID 624464, 2012; active = potentiation of 50% or more; inconclusive = 30% to 50%; inactive = 30% or less;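 further: compound concentration not given in the record; tested on top of an EC20 dose of dopamine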
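D2 cells co-treated with compound plus 50 nM dopamine (EC20) for 90 min at 37 deg C to detect potentiation. Beta-arrestin recruitment was read as enzyme-fragment luminescence after 1 h at ambient temperature. Full response was set by 57 uM dopamine.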
* hit, by the source's call; ? = inconclusive; . = not tested or not shown; & = joins results of further samples.

SMILES	CtBP-E1A blk	TRPML1 inh	TRPV1 potentiator	Six1-Eya2 blk	TRPML1 agonist	D2 potentiator
CC/C(C)=C1\SC(N2CCN(c3cccc(C(F)(F)F)c3)CC2)=NC1=O	1	7	-16	1	-0.1	-4
CCOC(=O)CS(=O)(=O)c1ccc(O)cc1	3	7	3	0	1.7	-4
CC(Sc1nc(-c2ccccc2)c(-c2ccccc2)[nH]1)C(=O)NCC1CCCO1 (configuration not stated)	-3	-7	.	-13	-0.6	-12
O=C(O)Cn1nnnc1SCC(=O)Nc1ccc(F)cc1F	8	-5	2	7	-0.5	2
NC(=O)c1ccc(-n2nnnc2SCC(=O)NC2CCCCC2)cc1	-4	-10	20	-1	0.4	-6
C/C(=N\NC(=S)NC(C)C)c1ccco1	-5	1	2	-11	0.3	-1
CCc1nnc(NC(=O)CSc2nc3c(C)cccc3[nH]2)s1	0	30	7	3	2.6	-4
CCN(CC)CC(=O)Nc1scc2c1c(=O)oc1ccccc12	11	53	21	-11	0.9	-21
CC(C)(C)Nc1nc(-c2ccc3c(c2)CCN3C(=O)C2CC2)cs1	-13	-3	7	-7	1.0	-6
COc1cccc(-c2nc(Cl)nc3cc(Cl)ccc23)c1	6	.	.	3	-0.3	.
COc1ccc(CNC(=O)CN2CCC(NC(=O)c3ccc(OC)cc3)CC2)cc1	-10	8	-11	0	0.5	-14
CCOc1ccc2nc(N3CCC(C(=O)N4CCN(c5ccccn5)CC4)CC3)sc2c1	-7	16	-13	-12	1.2	-1
O=C(Nc1ccc([N+](=O)[O-])cc1)OC1CCS(=O)(=O)C1 (configuration not stated)	2	.	.	-3	-0.6	.
CCCCN(CCCC)c1nc(OC)nc(-n2nnc(C(C)=O)c2C)n1	17	14	-10	37	3.9	8
O=C(COC(=O)c1cc(Cl)ccc1O)NNC(=O)c1ccc([N+](=O)[O-])cc1	0	-24	6	-8	1.9	-41
O=C(O)/C=C\C(=O)Nc1ccccc1F	-1	-1	8	12	0.7	0
COc1cccc(NC(=O)Nc2nnc(COCCO)s2)c1	1	.	.	1	-1.1	-1
CCOc1ccccc1NC(=O)CN(c1ccc(Cl)cc1)S(C)(=O)=O	0	6	-1	-17	-1.4	-11
Cn1c(=O)c2cc(S(=O)(=O)Nc3cccc(F)c3)ccc2n(C)c1=O	-22	-11	-20	?	0.6	-12
CCOC(=O)N1CCN(C(=O)c2ccc3c(c2)NC(=O)/C(=C/c2ccccc2)S3)CC1	4	4	6	-2	-1.2	-2
O=C1CCC/C1=C/Nc1ccc(Cl)cc1	.	1	-24	1	0.4	-10
Cc1ccc(C)c(N(CC(=O)NC2CCCC2)C(=O)CCC(=O)Nc2cc(C)on2)c1	0	19	-18	10	0.1	-1
Cc1onc(-c2c(F)cccc2Cl)c1C(=O)N=C(N)N1CC(C)OC(C)C1 (configuration not stated)	5	39	-5	-2	1.0	-1
Cc1ccc(C)c(S(=O)(=O)NC2CCSC2=O)c1 (configuration not stated)	10	-10	-14	-7	0.0	-2
Cc1ccc(NC(=S)N2CCN(CCN3C(=O)c4cccc5cccc(c45)C3=O)CC2)cc1	-4	-4	24	-1	0.8	-10

The list goes on, overlapping the part above by six compounds.
SMILES	CtBP-E1A blk	TRPML1 inh	TRPV1 potentiator	Six1-Eya2 blk	TRPML1 agonist	D2 potentiator
CCOC(=O)N1CCN(C(=O)c2ccc3c(c2)NC(=O)/C(=C/c2ccccc2)S3)CC1	4	4	6	-2	-1.2	-2
O=C1CCC/C1=C/Nc1ccc(Cl)cc1	.	1	-24	1	0.4	-10
Cc1ccc(C)c(N(CC(=O)NC2CCCC2)C(=O)CCC(=O)Nc2cc(C)on2)c1	0	19	-18	10	0.1	-1
Cc1onc(-c2c(F)cccc2Cl)c1C(=O)N=C(N)N1CC(C)OC(C)C1 (configuration not stated)	5	39	-5	-2	1.0	-1
Cc1ccc(C)c(S(=O)(=O)NC2CCSC2=O)c1 (configuration not stated)	10	-10	-14	-7	0.0	-2
Cc1ccc(NC(=S)N2CCN(CCN3C(=O)c4cccc5cccc(c45)C3=O)CC2)cc1	-4	-4	24	-1	0.8	-10
Cc1ccc([C@H]2C(C(=O)O)=CC[C@@H](c3cccc(C)c3)N2S(=O)(=O)c2ccc(C)cc2)cc1	2	-4	.	-2	-0.6	.
CC1=CC2=NC(=O)/C(=C/c3cccn3Cc3ccccc3)C(=N)N2O1	-20	9	12	-8	4.3	-5
COc1ccccc1NC(=S)NC1CCCCCC1	2	49	-14	-1	-0.5	-7
Cc1cc2nc(-c3ccc(SCC(=O)N4CCN(C(=O)c5ccco5)CC4)nc3)[nH]c2cc1C	-1	-5	3	-10	-0.1	12
COc1ccccc1CN1CCCCC1C(=O)O (configuration not stated)	-7	4	0	-4	-0.5	1
COc1cccc(OC)c1C(=O)Nc1ccc(Br)c(C(=O)c2ccccc2)c1	.	-6	2	-12	0.3	4
COc1cc(/C=C2\C=CC(=O)O2)cc(OC)c1	-11	3	-17	26	-0.7	-3
COCCNC(=O)[C@H](C)[C@H]1C[C@]1(C)[C@H](NC(=O)OCc1ccccc1)c1ccccc1	7	11	-25	5	-0.1	-4
O=[N+]([O-])c1ccc(OCCOCCOc2ccc([N+](=O)[O-])cc2)cc1	.	6	?	3	-0.1	-10
CCOC(=O)c1cnc2nc(SCc3ccccc3Cl)[nH]n2c1=O	6	-9	.	0	1.1	-7
CCCCCn1cnc2sc(-c3ccccc3)cc2c1=O	8	11	-2	14	0.0	-25
Cc1cc(C)c(S(=O)(=O)NNC(=O)C2CCN(Cc3ccccc3)CC2)c(C)c1	6	-8	8	2	3.8	7
COc1ccc(S(=O)(=O)Nc2cccc(-c3ccc4nncn4n3)c2)cc1F	.	-13	14	-3	0.5	-11
CC1Oc2ccccc2C=C1/C=C1/SC(N2CCOCC2)=NC1=O (configuration not stated)	-13	17	-1	6	0.2	-1
CN(C)CCNC(=O)c1cc(Br)ccc1Cl	-1	-8	-7	2	-0.2	-21
COc1ccc(NC(=O)c2ccc3nccnc3c2)cc1	-2	6	7	-2	0.3	-9
Cc1ccccc1-n1c(SCC(=O)Nc2ccc3c(c2)OCO3)nnc1-c1ccccn1	?	-5	-6	?	3.1	-3
O=C(N/N=C/C(Cl)=C/c1ccccc1)c1ccccn1	5	-5	-1	?	-1.0	-3
Cc1ccc(C2=NC3(CCCCC3)N=C2SCC(=O)Nc2ccc3c(c2)OCCO3)cc1	-7	12	23	-10	2.1	-1
Nc1nc2n[nH]nc2c(=O)[nH]1	-19	-7	.	4	0.4&-0.4	1
COc1ccc(-n2cnc3sccc3c2=O)cc1	6	12	4	1	1.2	-1
O=C(O)c1ccccc1C(=O)N1CCN(c2cccc(Cl)c2)CC1	3	9	-8	1	0.0	-28
CCC(c1nnnn1-c1c(C)cccc1C)N1CCN(C/C=C/c2ccccc2)CC1 (configuration not stated)	-20	.	.	-21	-0.3	-1
CCCCNC(=O)C1c2cc(OC)c(OC)cc2C(=O)N(C)C1c1ccc(OC)cc1 (configuration not stated)	-14	-12	5	1	0.9	-11
Cc1nnc2n1CCCCC2	4	7	5	6	0.7	-5
Following part:
SMILES	CtBP-E1A blk	TRPML1 inh	TRPV1 potentiator	Six1-Eya2 blk	TRPML1 agonist	D2 potentiator
Cc1ccc([C@H]2C[C@H](n3cc(COC(=O)c4ccccc4)nn3)[C@@H](O)CN2C(=O)c2cccs2)cc1	3	8	.	-3	-0.5	-1
Cc1nn(-c2cc(N3CCNCC3)ccc2[N+](=O)[O-])c(=O)c2ccccc12	-5	-12	7	-3	-0.3	-3
O=C(/C=C/c1ccccc1[N+](=O)[O-])c1ccc(F)cc1	-7	42	-9	6	-0.3	-5
C/C(=N\NC(=O)c1ccc(C)cc1C)c1ccc2c(c1)Nc1ccccc1S2	12	3	0	-5	-0.4	78*
CCOc1ccc(NC(=O)C2CCCN(C)C2)cc1 (configuration not stated)	.	-9	0	3	0.0	-9
O=C(NC(=S)Nc1cccc2cccnc12)c1cccs1	.	-2	7	-2	-0.2	-4
O=C1CC(c2ccc3c(c2)OCO3)C2=C(CCCC2=O)N1 (configuration not stated)	-16	14	21	-2	-0.9	6
CC(C)CC(=O)NC1(C(F)(F)F)C(=O)N(Cc2ccccc2)C2=C1C(=O)CC(C)(C)C2 (configuration not stated)	7	0	-8	2	-0.2	1
COc1ccc(CN2CCNC(=O)C2CC(=O)NC2CCCC2)cc1OC (configuration not stated)	-2	2	0	18	0.8	-1
COc1ccc(NC(=O)c2ccc(CN(c3cc(Cl)ccc3C)S(=O)(=O)c3ccccc3)cc2)cc1OC	3	1	16	-4	0.4	-4
C/C=C/Cn1c(SCc2ccc(Cl)cc2)nc2c1c(=O)[nH]c(=O)n2C	-3	1	9	-1	0.0	15
CCCOc1ccc(Cc2c(Cl)nc(SC)nc2N(C)C)cc1	36	6	-1	20	0.3	0
COc1cccc2cc(C(=O)N3CC(C)OC(C)C3)c(=O)oc12 (configuration not stated)	-12	4	3	0	1.2	-2
CN(CP(=O)(O)CN(C)S(C)(=O)=O)S(C)(=O)=O	-3	-8	-7	13	0.1	-6
COc1ccc(C(=O)/C=C/c2ccc(F)cc2)c(OC(=O)c2ccc([N+](=O)[O-])cc2)c1	-2	9	8	-6	0.3	-20
CC(C)N1C(=O)C2C(C(=O)NCc3ccccc3)C3C=CC2(O3)C1C(=O)NC(C)(C)C (configuration not stated)	-9	-13	-11	3	0.3	3
O=c1[nH]c2ccc(Cl)cc2c(-c2ccccc2)c1N1CCOCC1	-24	-1	-1	12	1.2	-15
NC(=O)NC(CC(=O)NCCc1ccc(S(N)(=O)=O)cc1)c1ccc(Cl)cc1 (configuration not stated)	0	.	-6	1	.	-7
CC(=O)N(c1ccccc1)c1nc(C)cc(C)c1C#N	6	21	5	2	1.8	-22
CC(C)[C@@H](NC(=O)OC(C)(C)C)C(=O)NCC1CCC(C(=O)N[C@@H](Cc2ccccc2)C(=O)O)CC1 (some centres not stated)	?	4	-13	0	-1.0	-3
CCCC(=O)N(CCN(C(=O)CCC)c1ccccc1)c1ccccc1	2	0	-8	2	1.1	-9
O=C(COc1cc([N+](=O)[O-])cc2cccnc12)NCCC1=CCCCC1	?	-3	2	-23	1.6	4
Cc1ccc(-c2nnc3cccc(Cl)n23)cc1	-26	-12	9	2	-0.4	-14
Cc1occc1-c1nnc(SCC(=O)c2c(N)n(Cc3ccccc3)c(=O)n(C)c2=O)n1C	0	-5	15	-1	0.4	9
O=C(Cc1ccccc1)NCCS(=O)(=O)N1CCN(c2ccccc2)CC1	1	17	5	5	-0.1	-4
CCCCNCC1C(Oc2ccc(Cl)cc2)C(=O)N1c1ccccc1C (configuration not stated)	3	16	8	8	0.1	-21

Marked active in D2 potentiator, of those listed so far:
molecule	CtBP-E1A blk	TRPML1 inh	Six1-Eya2 blk	D2 potentiator
C/C(=N\NC(=O)c1ccc(C)cc1C)c1ccc2c(c1)Nc1ccccc1S2	12	3	-5	78*

Screens (PubChem)
